# Bioassay records (PubChem)
# KCNQ2 enhance: potentiators of rat KCNQ2 potassium channel | Potassium voltage-gated channel subfamily KQT member 2 (Rattus norvegicus), O88943 | CHO-K1 KCNQ2, FluxOR thallium flux fluorescence; hits give high values | B-score at 10 µM | hit rate 0.54% among 310,000;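 active = fluorescence ratio B-score at least 3 SD of library B-scores, with initial fluorescence B-score within 3 SD, cut at about 5.3 in these data; same plate scores as AID 2156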;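 note: B-score of peak minus minimum over baseline fluorescence ratio after K+ and Tl+ stimulus; positive B-score means potentiation of KCNQ2 with more thallium influx and brighter signal; only the inactives scoring about 0 or higher are listed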
# Target sequence (O88943 whole entry, looked up): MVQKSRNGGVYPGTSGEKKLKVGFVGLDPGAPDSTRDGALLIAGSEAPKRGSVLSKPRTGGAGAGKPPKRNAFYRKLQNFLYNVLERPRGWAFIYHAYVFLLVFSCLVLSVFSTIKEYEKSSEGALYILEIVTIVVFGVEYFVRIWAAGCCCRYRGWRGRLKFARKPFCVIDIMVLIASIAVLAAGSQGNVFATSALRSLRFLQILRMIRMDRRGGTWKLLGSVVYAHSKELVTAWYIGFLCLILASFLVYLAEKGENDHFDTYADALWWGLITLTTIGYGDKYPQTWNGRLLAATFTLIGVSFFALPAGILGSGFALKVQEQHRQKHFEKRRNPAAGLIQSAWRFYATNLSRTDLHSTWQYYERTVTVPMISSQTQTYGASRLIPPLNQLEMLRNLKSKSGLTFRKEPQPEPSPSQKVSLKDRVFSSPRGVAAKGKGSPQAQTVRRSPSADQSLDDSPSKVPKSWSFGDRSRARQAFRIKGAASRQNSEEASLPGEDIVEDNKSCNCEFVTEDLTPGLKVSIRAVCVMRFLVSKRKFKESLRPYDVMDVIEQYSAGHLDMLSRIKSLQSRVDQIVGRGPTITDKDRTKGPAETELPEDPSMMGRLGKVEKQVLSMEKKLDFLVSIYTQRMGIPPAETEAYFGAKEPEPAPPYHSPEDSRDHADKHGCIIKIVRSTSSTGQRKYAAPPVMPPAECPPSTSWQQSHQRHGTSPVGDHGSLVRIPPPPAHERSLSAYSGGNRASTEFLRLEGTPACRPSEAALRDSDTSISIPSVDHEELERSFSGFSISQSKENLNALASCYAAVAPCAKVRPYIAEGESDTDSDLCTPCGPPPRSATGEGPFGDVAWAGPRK
# KCNQ2 enhance baseline: recorded beside KCNQ2 enhance, whose call it bears; B-score; compound at 10 µM; measured here: initial fluorescence intensity artifact check;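 brightness before thallium and not channel activity; 0 = typical well and far values either way flag optical interference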
# * hit, by the source's call. This is a subset; the hit share may differ from the screen's.
KCNQ2 enhance baseline	KCNQ2 enhance	SMILES
-1.4	0.18	Cc1ccc(C)c(C2C(C#N)=C(N)Oc3cc(C)oc(=O)c32)c1 (centres undefined)
-0.86	0.77	COC(=O)[C@@H]1C[C@@]2(O)[C@@H](O)[C@@H](O)[C@@H](O)C[C@H]2N1Cc1ccc(C(F)(F)F)cc1
0.11	0.21	CN(C(=O)COC(=O)c1ccccc1Cc1ccccc1)C1CCS(=O)(=O)C1 (centres undefined)
-0.48	0.23	O=C(CCCCCNc1nc(=S)[nH]c2ccccc12)NCCC1=CCCCC1
0.03	0.27	CC(C)[N+](C)(CCOC(=O)C1c2ccccc2Oc2ccccc21)C(C)C
-0.76	0.04	COc1cc2c(c(OCC(=O)NC(C)C)c1)C(=O)O[C@@H](C)CCCC(=O)CCCCC2
2.41	0.76	CCC(=O)N(CCN1CCOCC1)Cc1cc2cc3c(cc2nc1Cl)OCO3
-0.67	1.17	COc1cccc(NC(=O)N2CCC(NC(=O)C(Cc3cccc(C)c3)NC(C)=O)CC2)c1 (centres undefined)
0.16	0.16	CN(C)c1cc[n+](CCC(=O)Nc2cccc([N+](=O)[O-])c2N)cc1
0.04	0.04	CCCCNC(=S)N(C)/N=C/c1ccc(OCC(=O)Nc2c(C)cc(C)cc2C)c(OC)c1
-0.91	1.13	COc1ccc(-c2noc(-c3ccc4c(c3)OCO4)n2)cc1
-0.19	0.06	Cc1cc(-c2n[nH]c(=S)n2/N=C/c2ccccc2[N+](=O)[O-])n[nH]1
-0.95	0.39	Cn1nc(C(F)(F)F)c(C(=O)Nc2ccc(F)cc2F)c1Sc1ccc(Cl)cc1
0.36	1.03	Cc1ccc(NC(=O)c2ccc(NCCCN3CCC(C)CC3)c([N+](=O)[O-])c2)cc1F
-1.44	0.87	CC(C)c1ccc(CNC(=O)C(=O)NCC2CCCO2)cc1 (centres undefined)
0.64	1.2	CCN(CC)c1nc(C)nc2c1sc(=S)n2C
0.45	0.61	O=C(Nc1ccc2[nH]ncc2c1)c1ccccc1Cl
-0.12	3.09	Oc1cccc2ccc(Nc3ccccn3)nc12
0.15	0.91	Cc1ccn2c(=O)nc(SCC(=O)N3CCCc4ccccc43)nc2c1
-0.34	0.53	COc1ccc(OCCNc2c([N+](=O)[O-])c(=O)oc3ccccc23)cc1
-0.88	0.89	CCOC(=O)c1sc(N2C(=O)C(O)=C(C(=O)c3ccc(C)o3)C2c2cccc([N+](=O)[O-])c2)nc1C (centres undefined)
0.13	2.05	CCOc1ccc(-n2ccnc(SCC(=O)NCCc3ccccc3)c2=O)cc1
0.04	1.98	Cc1ccsc1C1C(C#N)=C(N)OC2=C1C(=O)CC(C)(C)C2 (centres undefined)
-1.27	0.93	O=C1CCN(CCc2ccccc2)CCN1[C@H](CO)Cc1ccccc1
1.18	0.13	O=C(O)CC(C(=O)Nc1ccc(Cl)c(Cl)c1)C1CCCO1 (centres undefined)
0.58	1.38	COc1ccc(-c2cc(-c3ccccc3O)[nH]n2)cc1OC
-0.28	0.73	CC(=O)c1ccc(-n2c(CCC(=O)O)ccc2-c2ccccc2)cc1
-0.02	0.52	CC(=O)c1cn(CC(=O)Nc2ccccc2Cl)c2ccccc12
-0.21	1.84	CCCCCCCCCCCCN1[C@@H](CC(=O)O)c2cc(F)ccc2S1(=O)=O
0.69	0.35	CCOc1ccc(NC(=O)CN(C)C(=O)c2cc(-c3cccs3)nn2-c2ccccc2)cc1OCC

# In the list so far, these contain a thiophene ring, fused or not.
KCNQ2 enhance baseline	KCNQ2 enhance	SMILES
0.04	1.98	Cc1ccsc1C1C(C#N)=C(N)OC2=C1C(=O)CC(C)(C)C2 (centres undefined)
0.69	0.35	CCOc1ccc(NC(=O)CN(C)C(=O)c2cc(-c3cccs3)nn2-c2ccccc2)cc1OCC

# The main list resumes; the 2 compounds before the break are reprinted first.
KCNQ2 enhance baseline	KCNQ2 enhance	SMILES
-0.21	1.84	CCCCCCCCCCCCN1[C@@H](CC(=O)O)c2cc(F)ccc2S1(=O)=O
0.69	0.35	CCOc1ccc(NC(=O)CN(C)C(=O)c2cc(-c3cccs3)nn2-c2ccccc2)cc1OCC
1.35	1	Cc1ccc(C)c(S(=O)(=O)N2CCN(C(=O)Cc3ccc(S(=O)(=O)N4CCOCC4)s3)CC2)c1
0.41	3.39	CCc1nn(CC(=O)Nc2ccc(Br)c(C)c2)c(=N)s1
0.58	1.79	Cc1ccccc1NS(=O)(=O)c1ccc(C(=O)N2CC(C)OC(C)C2)cc1 (centres undefined)
-1.07	0.74	CC1Cc2ccccc2N1C(=O)c1cccnc1 (centres undefined)
2.01	1.89	CCCC(=O)Nc1nn(CC)c2nc3ccc(C)cc3cc12
1.22	0.27	Cc1ccc(S(=O)(=O)NCCC(=O)NCc2ccccn2)cc1
0.14	1.54	Cc1ccc(S(=O)(=O)N2CCC(C(=O)NNS(=O)(=O)c3ccc(Cl)cc3)CC2)cc1
-0.28	1.8	O=S1(=O)C=CC(Sc2nc3ccccc3[nH]2)C1 (centres undefined)
-0.13	0.23	COc1cc2c(cc1OC)C(C)N(C(=O)Cc1ccc(C(F)(F)F)cc1)CC2 (centres undefined)
2.24	0.63	COc1ccc(CC(=O)N/N=C/c2ccc(-c3cccc(C(=O)O)c3)o2)cc1OC
0.71	0.87	Cn1c(CO)c(-c2ccccc2)c2cc([N+](=O)[O-])ccc21
-0.08	0.27	C/C(=N\NC(=O)c1ccncc1)c1ccc(NC(=O)c2ccc(Cl)cc2)cc1
-0.05	0.23	C=C(C)CSc1nnc(-c2ccccc2)n1N
0.01	0.7	CN(C)CCCNC(=S)/N=c1\sccn1Cc1ccccc1Cl
-0.27	0.8	Cc1ccccc1Cn1ccc(NC(=O)c2cnn3cccnc23)n1
-0.3	0.55	CC(C)C(O)(C#CCN1CCCCCC1)c1ccccc1 (centres undefined)
-0.01	1.34	O=C(/C=C/Nc1ccc(S(=O)(=O)Nc2ncccn2)cc1)c1cccs1
-0.06	0.37	COc1ccc(C(=O)/C=C(/C)N(C)C)cc1
-0.06	2.48	COc1ccc(C(=O)Nc2cc([N+](=O)[O-])ccc2N2CCCC2)cc1
-2.12	0.15	Cc1ccc(S(=O)(=O)N/N=C/c2ccc(C(=O)O)cc2)cc1
-0.04	1.4	O=C1C=C(c2ccccc2)CCC1
-1.03	1.39	Cc1cccc(CC(=O)N2CCCC2)c1
-0.29	0.91	COc1ccc(CCNc2ccncn2)cc1
-3.39	0.01	O=S(=O)(c1ccc(F)cc1)N1CCC(N2CCCCCC2)CC1
-0.47	0.3	CCOCCCNC(=O)CN(c1cc([N+](=O)[O-])ccc1OC)S(C)(=O)=O
-2.63	0.1	COc1ccc(/C=N/N2C(C)CCCC2C)cc1OC (centres undefined)
0.05	0.04	O=C(CSc1ccc(-c2ccco2)nn1)NCc1ccccc1Cl
1.39	0.5	COc1ccc2[nH]c(=O)c(CN(CCCN(C)C)C(=O)Nc3ccc(F)cc3)cc2c1
1.07	1.16	COc1ccc(NC(=O)CCSc2nnc(C)s2)cc1
-1.08	0.18	COc1ccccc1C(=O)NCc1nnc(SC(C)C(=O)Nc2nccs2)n1C (centres undefined)

KCNQ2 enhance baseline	KCNQ2 enhance	SMILES
-0.35	1.12	Cc1cccc(NC(=O)Nc2ccc(F)cc2)n1
-0.25	2.42	COc1ccc(-c2[nH]ncc2CNC(C)CCn2cccn2)c(F)c1 (centres undefined)
-0.61	1.85	Cc1cc(C)cc(NC(=O)C(=O)NCC2CCCO2)c1 (centres undefined)
1.4	0.84	CCN(CC)C(=O)NC1CC2CCCC(C1)N2Cc1ccccc1 (centres undefined)
-0.06	0.03	Cc1c(NC(=O)c2ccc(C(C)(C)C)cc2)cccc1[N+](=O)[O-]
-0.74	0.4	Cc1ccc(-c2ccc(CCC(=O)O)n2-c2cccc(C(=O)O)c2)cc1
-0.61	0.33	Nc1nc(C23CC4CC(CC(C4)C2)C3)cs1
0.38	0.7	CCc1cccc(C)c1NC(=O)C1CCN(c2nn3c(=O)cc(C)nc3s2)CC1
0.66	0.14	Cc1ccc(S(=O)(=O)N(CC(=O)N2CCCC2)C2CCCCC2)cc1
-0.02	3.76	S=c1[nH]c(-c2ccccc2)cn1/N=C/c1ccccc1Br
-0.02	0.48	Cc1ccc(CN(C(=O)c2csnn2)C(C(=O)NC2CCCC2)c2ccc(C)o2)cc1 (centres undefined)
-2.48	0.8	CCOC(=O)Cc1csc(NC(=O)c2ccncc2)n1
-1.25	1.39	O=C(CSc1nc(-c2ccccc2)c(-c2ccccc2)o1)N1CCOCC1
0.88	0.07	Cc1ccnn1CC(=O)N/N=C/c1ccc([N+](=O)[O-])s1
-0.14	0.26	COc1ccc(NC(=O)NNS(=O)(=O)c2cc(C)ccc2C)cc1OC
-0.12	0.81	CCC(C)NC(=O)CN(C1CCCCC1)S(C)(=O)=O (centres undefined)
-0.96	0.92	CC(C)[C@H](NC(=O)OCc1ccccc1)C(=O)N[C@@H](Cc1c[nH]c2ccccc12)C(=O)O
-0.67	1.56	Oc1ccc(CNC2CCCCC2)cc1
0.64	1	C/C(CC(=O)Nc1cccnc1)=N/NC(=O)COc1ccc(Cl)cc1Br
-0.01	0.92	CC1CN(S(=O)(=O)c2cccc(C(=O)NNC(=O)C(C)Oc3ccccc3F)c2)CC(C)O1 (centres undefined)
0.07	1.11	Cc1ccc(C(=O)CC2(O)C(=O)N(C)c3ccc(Br)cc32)c(C)c1 (centres undefined)
-0.63	0.34	Cc1nc(C(F)(F)F)nc(Nc2ccc(N=Nc3ccccc3)cc2)c1C#N
3.03	0.05	Cc1c(Cl)cccc1NC(=O)CCC(=O)N/N=C/c1ccco1
-1.74	0.17	Cc1[nH]c(C)c(S(=O)(=O)NCc2ccccc2Cl)c1C(=O)N1CCCC1
0.01	0.88	O=C1C=CC[C@H](/C=C/C[C@@H](O)C[C@H](O)CCc2ccccc2)O1
0.01	0.7	CC(OC(=O)c1cccc(O)c1)C(=O)N(C)Cc1ccccc1 (centres undefined)
-1.03	3.58	Cc1[nH]n(-c2ccc(F)cc2)c(=O)c1/C=N/c1sc2c(c1C#N)CCCC2
-1.16	2.14	CN1C=C/C(=C\c2cc[n+](C)c3ccccc23)c2ccccc21
-0.13*	7.41*	COc1cccc(OCCOc2ccc(/C=C3/SC(=S)NC3=O)cc2)c1
0.1	0.13	CC(=O)c1c(C)n([O-])c2ccc(C)cc2[n+]1=O

# Grouped by structure: those above with a CF3 group.
KCNQ2 enhance baseline	KCNQ2 enhance	SMILES
-0.86	0.77	COC(=O)[C@@H]1C[C@@]2(O)[C@@H](O)[C@@H](O)[C@@H](O)C[C@H]2N1Cc1ccc(C(F)(F)F)cc1
-0.95	0.39	Cn1nc(C(F)(F)F)c(C(=O)Nc2ccc(F)cc2F)c1Sc1ccc(Cl)cc1
-0.13	0.23	COc1cc2c(cc1OC)C(C)N(C(=O)Cc1ccc(C(F)(F)F)cc1)CC2 (centres undefined)
-0.63	0.34	Cc1nc(C(F)(F)F)nc(Nc2ccc(N=Nc3ccccc3)cc2)c1C#N

# Later entries
KCNQ2 enhance baseline	KCNQ2 enhance	SMILES
-0.43	1.04	Cc1ccc(CN2CCC(C(=O)NCCC(C)C)CC2)o1
-0.26	0.16	CN1CCN(S(=O)(=O)c2ccc(NC(=O)c3ccccc3F)cc2)CC1
1.79	0.27	CC1CN(S(=O)(=O)N2CCOCC2)CCN1S(=O)(=O)N1CCOCC1 (centres undefined)
0.2	3.05	O=C(CSc1nc2nc(-c3cccs3)cc(C(F)(F)F)c2c(=O)[nH]1)Nc1c(F)c(F)c(F)c(F)c1F
-2.33	1.1	Cn1c(=O)c(=O)n(C)c2cc(S(=O)(=O)NCCN3CCN(c4ccccc4F)CC3)ccc21
-0.31	1.63	NC(=O)Cn1c(=O)n(-c2ccccc2)c(=O)c2oc3ccccc3c21
0.75	0.19	COc1cc(CN2CCC(n3nccc3NC(=O)c3ccc4c(c3)OCO4)CC2)ccc1O
-0.41	0.79	O=C(O)c1ccccc1C(=O)Nc1ccccc1
-0.96	2.76	O=C(Cc1cccc2ccccc12)Nc1cc(Cl)ccc1C(=O)O
-0.01	1.86	CCCCOc1ccc(C2CC(=O)NC2=O)cc1 (centres undefined)
-0.47	1.98	O=C(Nc1cccc(Cl)c1)NC1CCCCC1
-0.72	0.61	O=C(NNS(=O)(=O)Cc1ccccc1)c1ccc([N+](=O)[O-])cc1
-1.49	0.89	Nc1c(C(=O)O)sc2nc(-c3ccccc3)c3c(c12)CCCC3
-0.43	0.08	CC1CCN(CCc2nc3cc(NC(=O)COc4ccc(Cl)cc4)ccc3n2C)CC1
-1.26	0.61	Nc1nc(N2CCCCC2)nc(N2CCCCC2)n1
-0.08	0.73	O=C(Nc1nnc(-c2ccccc2)o1)c1cccc(N2C(=O)CCC2=O)c1
0.13	0.24	Cc1ccccc1N(C(=O)c1csnn1)C(C(=O)NC(C)(C)C)c1ccncc1 (centres undefined)
0.07	1.27	CCN(CC)C(=O)CSc1nnc([C@@H](N)C(C)C)o1
0.33	0.39	COC(=O)c1cc(NC(=O)CN(c2ccc(OC)cc2)S(=O)(=O)c2ccc(F)cc2)ccc1Cl
1	0.63	COC(=O)NCC(c1ccco1)N1CCN(c2ccccc2)CC1 (centres undefined)
1.06	0.61	Cc1cc(C)nc(SCc2cnc(C)nc2N)n1
-0.64	0.4	O=c1[nH]c2ccccc2c(=O)n1CCCO
-0.51	2.13	Cc1ccc([N+](=O)[O-])cc1-c1ccc2cccc(C)c2n1
-0.04	0.44	O=C(c1ccco1)N1CCN(C(=O)c2[nH]ncc2[N+](=O)[O-])CC1
-0.78	0.61	O=C(NCCc1ccccc1)Nc1cccc(Cl)c1
-0.17	0.48	O=C(CN1C(=O)N/C(=C\c2ccccc2OCc2ccc(C(=O)O)cc2)C1=O)Nc1ccccc1F
0.42	0.05	COc1ccc(CCNC(=O)COC(=O)COc2c(C)cc(C)cc2C)cc1OC
0.83	0.66	O=C(CCCOc1ccccc1)NCC1CCCO1 (centres undefined)
